Compound activity: PubChem BioAssay, Broad Institute
AF4-AF9 inh: inhibitors of AF4 peptide binding to AF9, primary screen, biochemical, AlphaScreen, biotin-AF4 peptide, FLAG-AF9, single point; Protein AF-9 (Homo sapiens), P42568; inhibition, % at 10 µM; 0.47% of 350,000 active; AID 651704, 2012;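 active means every replicate reaching a set inhibition limit, whatever the replicate mean, cut at about 25% in these data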;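 further: 0% = plate neutral control median and 100% = total signal loss; the record names both 10 and 1 µM as test concentration; the first replicate is given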
Target sequence (P42568 whole entry, looked up): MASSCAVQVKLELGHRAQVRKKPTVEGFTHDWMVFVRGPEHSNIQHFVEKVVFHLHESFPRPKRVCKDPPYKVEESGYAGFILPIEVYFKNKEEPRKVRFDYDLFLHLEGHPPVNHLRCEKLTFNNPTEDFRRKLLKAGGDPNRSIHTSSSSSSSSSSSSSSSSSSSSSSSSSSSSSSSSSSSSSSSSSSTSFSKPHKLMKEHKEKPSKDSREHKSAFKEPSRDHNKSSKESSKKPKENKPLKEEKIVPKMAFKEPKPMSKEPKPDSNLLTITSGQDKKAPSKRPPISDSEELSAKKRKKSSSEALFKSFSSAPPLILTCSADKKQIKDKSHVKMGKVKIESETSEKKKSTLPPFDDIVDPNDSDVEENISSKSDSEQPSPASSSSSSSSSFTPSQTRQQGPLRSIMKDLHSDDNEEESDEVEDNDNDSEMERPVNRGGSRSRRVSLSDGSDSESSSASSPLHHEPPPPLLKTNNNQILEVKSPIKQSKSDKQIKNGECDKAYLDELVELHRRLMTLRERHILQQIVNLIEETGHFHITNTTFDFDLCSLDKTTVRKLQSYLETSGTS
An asterisk follows results filed as active; & = joins results of further samples. Some of the compounds tested (hit frequency here may not be typical).

Start of the listing, in advance:
SMILES	AF4-AF9 inh
COCC(=O)Nc1ccc2c(c1)C(=O)N(C)C[C@H](OC)[C@@H](C)CN(Cc1ccncc1)[C@@H](C)CO2	-1.1
CCCC(=O)Nc1ccc2c(c1)OC[C@H](C)N(CC1CCOCC1)C[C@@H](C)[C@@H](OC)CN(C)C2=O	-1.1
C[C@H](CO)N1C[C@H](C)[C@H](CN(C)Cc2ccncc2)Oc2ncc(-c3cccc(F)c3)cc2C1=O	-4.4&-9.1
Cc1ccc(S(=O)(=O)N(C)C[C@H]2Oc3c(NC(=O)c4cc(C)nn4C)cccc3C(=O)N([C@H](C)CO)C[C@H]2C)cc1	-12
O=C(C[C@@H]1CC[C@H]2[C@@H](COC[C@H](O)CN2C(=O)c2cnccn2)O1)NCc1ccc(F)cc1	-2.1
NCC[C@H]1CC[C@H](NC(=O)C2CCCCC2)[C@H](CO)O1	1.9

Main list, repeating the preview:
SMILES	AF4-AF9 inh
COCC(=O)Nc1ccc2c(c1)C(=O)N(C)C[C@H](OC)[C@@H](C)CN(Cc1ccncc1)[C@@H](C)CO2	-1.1
CCCC(=O)Nc1ccc2c(c1)OC[C@H](C)N(CC1CCOCC1)C[C@@H](C)[C@@H](OC)CN(C)C2=O	-1.1
C[C@H](CO)N1C[C@H](C)[C@H](CN(C)Cc2ccncc2)Oc2ncc(-c3cccc(F)c3)cc2C1=O	-4.4&-9.1
Cc1ccc(S(=O)(=O)N(C)C[C@H]2Oc3c(NC(=O)c4cc(C)nn4C)cccc3C(=O)N([C@H](C)CO)C[C@H]2C)cc1	-12
O=C(C[C@@H]1CC[C@H]2[C@@H](COC[C@H](O)CN2C(=O)c2cnccn2)O1)NCc1ccc(F)cc1	-2.1
NCC[C@H]1CC[C@H](NC(=O)C2CCCCC2)[C@H](CO)O1	1.9
COC(=O)[C@]12CCCCC=C1N(Cc1cccc3ccccc13)C(=O)[C@H](CC(=O)NCc1ccccc1)C2	0.1
C[C@H]1CN([C@@H](C)CO)C(=O)Cc2cc(NC(=O)Nc3cccc4ccccc34)ccc2O[C@H]1CN(C)CC1CCCCC1	6.4
Cc1ccc(S(=O)(=O)N(C)C[C@H]2Oc3ccc(NC(=O)NC4CCCCC4)cc3CC(=O)N([C@H](C)CO)C[C@H]2C)cc1	3.2
CN(C)CC(=O)Nc1ccc2c(c1)[C@@H]1C[C@H](CC(=O)NCc3cccc(F)c3)O[C@H](CO)[C@@H]1O2	0.5
C[C@@H]1CN([C@H](C)CO)C(=O)c2cc(NC(=O)Nc3ccc(C(F)(F)F)cc3)ccc2O[C@H]1CN(C)Cc1ccc2c(c1)OCO2	1.8
COc1ccc(OC)c(C=C2CCc3ccccc3C2=O)c1	11
O=C(Nc1cccc(F)c1)Nc1nnc([C@@H]2C[C@H](O)[C@@H](CO)O2)s1	1.6
CCCNC(=O)N[C@H]1CC[C@H](CCn2cc(C3CC3)nn2)O[C@H]1CO	-0.4
COc1ccc2c3c([nH]c2c1)[C@H](CO)N(Cc1ccccn1)CC31CCN(Cc2cccc(F)c2)CC1	3.6

3 entries already listed, ordered by their value in AF4-AF9 inh, smallest number first.
smiles	AF4-AF9 inh
Cc1ccc(S(=O)(=O)N(C)C[C@H]2Oc3c(NC(=O)c4cc(C)nn4C)cccc3C(=O)N([C@H](C)CO)C[C@H]2C)cc1	-12
CCCNC(=O)N[C@H]1CC[C@H](CCn2cc(C3CC3)nn2)O[C@H]1CO	-0.4
NCC[C@H]1CC[C@H](NC(=O)C2CCCCC2)[C@H](CO)O1	1.9

Further entries follow:
SMILES	AF4-AF9 inh
COc1ccc2nc3n(c(=O)c2c1)-c1cc2ccccc2cc1C(=O)NC3Cc1ccc(O)cc1 (centres undefined)	-2.8
Cc1ccccc1CN1C(=O)c2ccccc2C1c1nnnn1Cc1ccccc1 (centres undefined)	1.2
CO[C@@H]1CN(C)C(=O)c2cc(NC(C)=O)ccc2OC[C@@H](C)N(C(=O)CN(C)C)C[C@H]1C	-1.8
C[C@H](NC(=O)[C@H]1[C@H](CO)[C@H]2Cn3c(ccc(C4=CCCC4)c3=O)[C@@H]1N2C(=O)C1CC1)c1ccccc1	-1.1
C[C@@H]1CN([C@H](C)CO)C(=O)c2cccc(NS(=O)(=O)c3cccs3)c2O[C@H]1CN(C)Cc1ccc(C(=O)Nc2ccccc2N)cc1	1.4
C[C@@H]1CN([C@H](C)CO)C(=O)c2cccc(NS(=O)(=O)c3ccc(F)cc3)c2O[C@H]1CN(C)C(=O)Nc1ccc(F)cc1	-1.6
Cc1ccc(S(=O)(=O)Nc2ccc3c(c2)C(=O)N([C@H](C)CO)C[C@@H](C)[C@@H](CN(C)Cc2ccc4c(c2)OCO4)O3)cc1	4.3
CCCc1cn(CC[C@@H]2CC[C@H](NC(=O)C3CCOCC3)[C@@H](CO)O2)nn1	0.4
CNC(=O)C[C@@H]1CC[C@@H]2[C@H](COC[C@H](O)CN2C(=O)c2ccc3c(c2)OCO3)O1	-3.5
C[C@@H]1CN([C@H](C)CO)C(=O)c2cc(NC(=O)CCN3CCOCC3)ccc2O[C@@H]1CN(C)C(=O)NC1CCCCC1	-2.3
CC(=O)Nc1cccc(-c2ccnc3c2CC(C(=O)NCc2cccs2)O3)c1 (centres undefined)	-1.0
CO[C@@H]1CN(C)C(=O)c2ccc(NC(=O)C3CCCCC3)cc2OC[C@@H](C)N(Cc2nccs2)C[C@H]1C	1.8
CCC(=O)N1CC2(CN(Cc3ccc(Cl)cc3)C2)c2c([nH]c3cc(OC)ccc23)[C@H]1CO	15
O=C(Nc1ccccc1)N[C@@H]1CC[C@@H](CCn2cc(C3(O)CCCC3)nn2)O[C@H]1CO	-0.1
CCCS(=O)(=O)NC(=O)C1(C)CCCN(C(=O)c2ccc(C#N)cc2)C1 (centres undefined)	-1.4
CC(C)NC(=O)N1CC2(C1)[C@H](c1ccccc1)[C@@H](CO)N2Cc1cccnc1	-1.9
CCC(=O)Nc1ccc2c(c1)OC[C@@H](C)N(C(=O)c1ccccn1)C[C@H](C)[C@@H](OC)CN(C)C2=O	0.8
CC(C)CNc1ncnc2c1ncn2[C@H]1CN(Cc2ccc3c(c2)OCO3)C[C@@H](CO)O1	-4.8
COc1ccc(CN2C[C@@H](CO)O[C@@H](n3cnc4c(NCc5ccncc5)ncnc43)C2)cc1	-3.9
Cc1ccc(S(=O)(=O)N(C)C[C@H]2Oc3cc(C#CC4CCCC4)ccc3S(=O)(=O)N([C@@H](C)CO)C[C@@H]2C)cc1	3.4
CO[C@@H]1CN(C)C(=O)c2cc(NC(=O)NC(C)C)ccc2OC[C@@H](C)N(C)C[C@H]1C	-2.0
COC(=O)[C@H]1[C@H](CO)[C@H]2Cn3c(ccc(-c4cccc(F)c4)c3=O)[C@H]2N1C(=O)CC1CC1	-0.4
O=C(C1=C[C@@H](c2ccc(C(F)(F)F)cc2)C[C@@H](OCc2ccc(CO)cc2)O1)N1CCCCCCC1	-1.2
O=C(C[C@H]1CC[C@@H]2[C@H](COC[C@H](O)CN2Cc2cccc(-c3ccncc3)c2)O1)N1CCOCC1	1.8
Cc1noc(C)c1S(=O)(=O)Nc1ccc2c(c1)C(=O)N([C@@H](C)CO)C[C@@H](C)[C@H](CN(C)S(=O)(=O)c1ccccc1)O2	-2.0
Cc1ccc(S(=O)(=O)NCC[C@@H]2CC[C@H](NC(=O)CCN3CCCCC3)[C@H](CO)O2)cc1	-5.1
O=C(NCC[C@@H]1CC[C@H](NC(=O)c2ccccc2F)[C@@H](CO)O1)c1cnccn1	-0.7
CC1(C(=O)NS(=O)(=O)c2ccccc2Cl)CCN1C(=O)CCc1cccs1 (centres undefined)	-3.0
Cc1ccc([C@H]2N[C@]3(CCCN(Cc4ccccc4)C3=O)[C@H]3C(=O)N(C)C(=O)[C@@H]23)cc1	0.7
O=C(C1CCCC1)N1CC2(C1)[C@H](c1ccccc1)[C@@H](CO)N2C(=O)c1cccnc1	-1.9
CO[C@H](CN(C)S(=O)(=O)c1ccc(C)cc1)[C@@H](C)CN([C@H](C)CO)S(=O)(=O)c1cccc(Cl)c1	-1.1
O=C(C[C@H]1CC[C@@H](NC(=O)Nc2ccc3c(c2)OCO3)[C@@H](CO)O1)NCc1ccc2c(c1)OCO2	2.2
C[C@@H]1CCCCO[C@H](CN(C)C(=O)Nc2ccccc2)[C@@H](C)CN([C@@H](C)CO)C(=O)c2cc(NC(=O)c3ccncc3)ccc2O1	1.5
COc1ccc(NC(=O)C2(C)Cc3c(-c4ccc(NC(C)=O)cc4)ccnc3O2)cn1 (centres undefined)	-0.3
C[C@H]1CN([C@@H](C)CO)C(=O)c2cc(NS(=O)(=O)c3cccs3)ccc2O[C@@H]1CN(C)Cc1ccc(Oc2ccccc2)cc1	5.1
CC(C)NC(=O)Nc1ccc2c(c1)CC(=O)N([C@@H](C)CO)C[C@@H](C)[C@H](CN(C)S(=O)(=O)c1cccs1)O2	-7.8
CCCNC(=O)[C@H]1[C@H](CO)[C@H]2Cn3c(ccc(-c4ccc(OC)cc4)c3=O)[C@H]2N1CCC	-2.7
COc1ccc(S(=O)(=O)N2CCCCC2)cc1NC(=O)CCc1cc(OC)c(OC)c(OC)c1	5.9
COc1cccc(S(=O)(=O)Nc2ccc3c(c2)OC[C@@H](C)N(Cc2ccccc2F)C[C@H](C)[C@@H](OC)CN(C)C3=O)c1	1.3
COC(=O)C[C@@H]1CC[C@H](NS(=O)(=O)c2ccc(OC)cc2)[C@H](CO)O1	-3.1
COc1ccc(NC(=O)N[C@H]2CC[C@@H](CCNS(=O)(=O)c3cccc(Cl)c3)O[C@H]2CO)cc1	4.3
CC(=O)Nc1nn(CC(C)C)c2nc3ccc(C)cc3cc12	-5.1
CC(C)NC(=O)N(C)C[C@H]1Oc2ccc(NC(=O)Nc3cccc4ccccc34)cc2CC(=O)N([C@H](C)CO)C[C@@H]1C	2.2
COC(=O)[C@@H]1[C@@H](CO)[C@@H]2Cn3c(ccc(/C=C/c4ccccc4)c3=O)[C@@H]2N1C(=O)CC1CC1	-7.9
O=C(Nc1cccc(Cl)c1)N[C@@H]1CC[C@@H](CCNC(=O)C2CCCCC2)O[C@H]1CO	2.4
COC(=O)[C@]12C[C@H](CC(=O)N3CCN(C(=O)C4CC4)CC3)C(=O)N(CCC3=CCCCC3)C1=C[C@H](C(C)(C)C)O[C@@H]2C	2.4
CN(C)CCCNC(=O)[C@H]1[C@H](CO)[C@H]2Cn3c(cccc3=O)[C@@H]1N2C(=O)Nc1cc(F)ccc1F	-0.5
CO[C@H](CN(C)C(=O)c1ccccc1F)[C@H](C)CN([C@@H](C)CO)S(=O)(=O)c1ccc(C)cc1	1.1
COc1ccc2c3c(n(C)c2c1)[C@@H](CO)N(C(=O)NC(C)C)CC31CN(CC2CCOCC2)C1	1.0
CO[C@@H]1CC[C@H]2CCOc3c(C#N)cccc3C(=O)N(C)C[C@H](C)C(=O)N(C)C[C@H]1O2	-10
CCN1C[C@@H]2[C@@H]3C(=O)N(C)C(=O)[C@@H]3[C@](Cc3ccccc3)(C1=O)N2C(=O)c1ccc(C)cc1	-1.4
C[C@@H]1CN([C@@H](C)CO)C(=O)c2cccc(NC(=O)Nc3ccc(C(F)(F)F)cc3)c2O[C@H]1CN(C)CC1CC1	0.6
COc1cccc(-c2ccc3c(c2)O[C@H](CN(C)CC2CC2)[C@H](C)CN([C@H](C)CO)S3(=O)=O)c1	11
COc1ccc2c3c([nH]c2c1)[C@@H](CO)N(S(C)(=O)=O)CC31CCN(CC2CCCC2)CC1	-0.6
COc1ccc(NC(=O)c2cc(C3CCCCN3S(=O)(=O)c3c(C)noc3C)on2)c(C)c1 (centres undefined)	0.6
Cc1cccc(CN(C)C[C@@H]2OCc3cn(nn3)CCCC(=O)N([C@H](C)CO)C[C@H]2C)c1	-2.3
O=C(NC1CCC1)[C@@H]1[C@@H](CO)[C@@H]2Cn3c(cccc3=O)[C@H]1N2CC1CCCC1	-2.8
CO[C@H]1CN(C)C(=O)c2ccc(NS(C)(=O)=O)cc2OC[C@@H](C)N(C(=O)CC2CC2)C[C@@H]1C	-2.8
C[C@@H]1CN([C@H](C)CO)S(=O)(=O)c2ccc(C#CC3CCCC3)cc2O[C@H]1CN(C)C	3.9
CO[C@@H]1CN(C)C(=O)c2cc(NC(=O)C3CC3)ccc2OC[C@H](C)N(C(=O)CN(C)C)C[C@@H]1C	1.5
(next part)
SMILES	AF4-AF9 inh
COc1ccc(S(=O)(=O)N(C)C[C@H]2OCCCC[C@H](C)Oc3ccc(NC(=O)NC4CCCCC4)cc3C(=O)N([C@@H](C)CO)C[C@H]2C)cc1	0.6
Cc1ccc(-c2ccccc2[C@@H]2[C@H](C#N)N(C(=O)c3cccc(F)c3)[C@H]2CO)cc1	-7.6
COC(=O)[C@H]1[C@H](CO)[C@H]2Cn3c(ccc(-c4ccccc4F)c3=O)[C@H]2N1C(=O)c1ccccn1	-9.9
CCOC(=O)C1=CCN(S(=O)(=O)c2ccc(F)cc2)C1c1ccccc1 (centres undefined)	-2.2
COc1ccc(NC(=O)Nc2ccc3c(c2)C(=O)N([C@H](C)CO)C[C@H](C)[C@@H](CN(C)C(=O)Nc2ccc(F)cc2)O3)cc1	0.8
COCCNC[C@@H]1[C@H](c2ccccc2)[C@H](CO)N1c1nc(C)c(C)s1	1.9
CC1(C(=O)NCc2ccco2)Cc2c(-c3cccc(C(F)(F)F)c3)ccnc2O1 (centres undefined)	1.4
COc1ccc(NC(=O)N(C)C[C@H]2Oc3c(NC(=O)Nc4ccc5c(c4)OCO5)cccc3C(=O)N([C@@H](C)CO)C[C@H]2C)cc1	12
O=C(NCC[C@@H]1CC[C@H](NC(=O)c2cnccn2)[C@H](CO)O1)Nc1ccc(F)cc1	12
C[C@@H]1CN([C@H](C)CO)C(=O)c2cc(NC(=O)Cc3ccccc3)ccc2O[C@@H](C)CCCCO[C@H]1CN(C)C(=O)Nc1cccc2ccccc12	1.8
COc1cccc(CN2CCC(C(=O)NC(C)c3cccc4ccccc34)CC2)c1 (centres undefined)	-3.7
